Screening data deposited in PubChem BioAssay by several laboratories.
Autofluor counter: counter-screen for toxin protease inhibitors: compound fluorescence; AID 624483; fluorescence intensity (no concentration beside the values); compound autofluorescence counterscreen, microsphere flow cytometry; stronger effect = higher value; 360,000 tested, 3.1% active;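 active = at least 3 SD above the mean of all compounds, about 16000 in these data; inconclusive = too few beads counted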;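 also: 100 nL of 1 mM stock went into each well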
PrP UTR inh: suppresses PrP 5' UTR mRNA reporter expression; cell-based PrP 5' UTR mRNA reporter, plate reader; inhibition, % (no concentration beside the values); 340,000 tested, 0.35% active; AID 488862;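 active = every replicate at 50% or more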;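 also: 0 = median of the neutral control wells; tested in H4 reporter cells; numbers are from one replicate; inactives centre near -14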
ugtP null kill: growth inhibition of S. aureus ugtP deletion strain | S. aureus RN4220 ugtP deletion, OD600 growth, 16 h; some inactives read as strong as hits | growth inhibition, % (test concentration not listed) | 330,000 tested, 0.54% active | AID 1259309;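 active = z-score under -3 and OD600 up to 0.15 on both plates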;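 also: plate controls were untreated wells for no effect and antibiotic for full effect; wells of about 80 µL received 100 nL stock; the first replicate is given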
RN4220 kill: S. aureus RN4220 growth inhibition | 330,000 tested, 0.33% active | AID 1259311 | OD600, 16 h | inhibition, % (test concentration not listed);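 active = z-score of -3 or lower and OD600 up to 0.18 on both plates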;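 also: plate controls were untreated cells for no effect and reference antibiotic for full effect; stock transfer was 100 nL into about 80 µL; one replicate is shown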
Mtb hypoxia rep: inhibitors of hypoxia-regulated fluorescent reporter in Mycobacterium tuberculosis | fluorescence inhibition, % (no concentration beside the values) | 300,000 tested, 0.1% active | M. tuberculosis hypoxia-regulated fluorescent reporter, fluorescence;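 active = 35 to 45% if threefold the growth effect, above 45% if 1.5-fold the growth effect; inactive = the rest, general growth blockers included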;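 also: wells of about 50 µL received 100 nL stock; 0% = vehicle wells and 100% = reference inhibitor wells; whole bacteria with a GFP reporter of the hypoxia response; strong numbers were not always called active; many hits fall short of the cut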
BJeLR viability: kills HRASV12-expressing BJeLR cells | 300,000 tested, 0.17% active | inhibition, % (no concentration beside the values) | BJeLR (HRASV12) viability, CellTiter-Glo ATP luminescence, 48 h; reference of the scale not given here | AID 1554;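 active = replicate mean above 50%; inconclusive = above 50% but judged a plate artefact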;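 also: 50 nL library stock added to about 25 µL; numbers are from one replicate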
Mtb hypoxia rep growth: further read-out of Mtb hypoxia rep, marked with its call; growth inhibition, %; measured here: M. tuberculosis growth (absorbance);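 0% = vehicle and 100% = reference antibiotic; read after six days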
* = called active by the depositor; ? = inconclusive; . = no result given.

#1 CC(C)c1ccc(S(=O)(=O)c2nnn3c2nc(NCC2CCCO2)c2ccccc23)cc1 (stereo unspecified)
#2 Cc1[nH]n(-c2ccccc2)c(=O)c1C=NC1CCCCC1
#3 O=C(NNC(=O)c1cccnc1Cl)c1ccc(F)cc1
#4 Cc1ccccc1OCc1nc2ccccc2c(=O)n1N=Cc1cn[nH]c1-c1ccccc1
#5 CC1(C)CC(=O)C=C(NCCN2CCN(C(=O)Nc3ccc(Cl)c(Cl)c3)CC2)C1
#6 COc1cccc(/C(O)=C2/C(=O)C(=O)N(c3ccccn3)C2c2ccc(OC)c(OC)c2)c1 (stereo unspecified)
#7 O=C(O)c1c(NC(=O)N(CCO)Cc2ccccc2)sc2c1CCCC2
#8 Cc1ccc(C[n+]2ccccc2)cc1
#9 COc1ccc(NC(=O)CSc2nc3c(c(=O)n2-c2ccccc2)SCC3)c(OC)c1
#10 CC(/C=C/c1ccccc1F)=N\NC(=O)C(C)C

screen / no.,1,2,3,4,5,6,7,8,9,10
Autofluor counter,5301,1991,5709,.,2435,9484,3382,3839,10118,2039
PrP UTR inh,-17,-20,9,.,-27,-12,-24,-11,0,-32
ugtP null kill,-2,-1,-4,-15,-35,6,4,-4,5,.
RN4220 kill,3.5,7.0,15,11,-7.7,4.5,3.1,-16,1.2,.
Mtb hypoxia rep,7,-6,1,1,.,1,3,1,-85,.
Mtb hypoxia rep growth,7,6,17,4,.,3,-2,14,-2,.
BJeLR viability,6,5,-3,.,4,1,-3,12,-13,-4

3 structures from above, sorted by count of non-hydrogen atoms, ascending:
#8 Cc1ccc(C[n+]2ccccc2)cc1
#9 COc1ccc(NC(=O)CSc2nc3c(c(=O)n2-c2ccccc2)SCC3)c(OC)c1
#1 CC(C)c1ccc(S(=O)(=O)c2nnn3c2nc(NCC2CCCO2)c2ccccc23)cc1 (stereo unspecified)

screen / no.,8,9,1
Autofluor counter,3839,10118,5301
PrP UTR inh,-11,0,-17
ugtP null kill,-4,5,-2
RN4220 kill,-16,1.2,3.5
Mtb hypoxia rep,1,-85,7
Mtb hypoxia rep growth,14,-2,7
BJeLR viability,12,-13,6

Next part:
#11 Cc1ccccc1Cn1nnc(-c2ccc(C(=O)O)cc2)n1
#12 COc1ccc(C(=O)OCC(=O)NC(Cc2ccccc2)C(C)=O)cc1S(=O)(=O)N1CCCC1 (stereo unspecified)
#13 Cc1ccc(-c2nsc(SCC(=O)NCc3ccc4c(c3)OCO4)n2)cc1
#14 CCCOc1cccc(C(=O)NCCNC(=O)c2cnccn2)c1
#15 O=C(O)c1ccc(COc2ccc3c4c(c(=O)oc3c2)CCC4)o1
#16 CCOCCCNC(=O)c1ccc2c(c1)ncn2C1CCCC1
#17 Cc1cccc(C2CC(c3ccc(Cl)cc3)Nc3nc(N)nn32)c1 (stereo unspecified)
#18 O=C(CNC(=O)c1[nH]cnc1C(=O)NC(Cc1ccccc1)C(=O)OCc1ccccc1)OCc1ccccc1 (stereo unspecified)
#19 CSC1=NC(C(Cl)(Cl)Cl)N=C(c2ccccc2)N1 (stereo unspecified)
#20 NC(=O)CC(NC(=O)c1ccc(Br)cc1)c1ccc(NC2CCCCCCC2)c([N+](=O)[O-])c1 (stereo unspecified)

screen / no.,11,12,13,14,15,16,17,18,19,20
Autofluor counter,4672,.,2137,3842,6949,6029,5507,.,4629,3661
PrP UTR inh,-18,-8,-13,1,-3,0,-13,.,-23,-24
ugtP null kill,-3,3,-3,5,4,4,5,12,3,1
RN4220 kill,-3.1,7.4,-2.8,3.9,-0.2,8.2,-1.6,5.2,13,-4.6
Mtb hypoxia rep,6,-14,1,-11,3,8,.,20,12,2
Mtb hypoxia rep growth,-5,-28,15,1,6,6,.,4,8,2
BJeLR viability,-3,.,-15,6,-16,-5,-5,.,14,-8

#21 COc1ccc(S(=O)(=O)NCc2cn3c(C)csc3n2)cc1F
#22 NS(=O)(=O)c1ccc(CCNC(=O)COC(=O)CCc2ccccc2)cc1
#23 COC(=O)C1C(c2ccc(OC)c(OC)c2)NC(c2ccc(OC)c(OC)c2)C(C(=O)OC)S1(=O)=O (stereo unspecified)
#24 Cc1cc(N(CCCl)CCCl)ccc1C=Cc1ccncn1
#25 Cc1[nH]c2ccccc2c1CCN
#26 CN1C(=O)N(C)C(=O)C2(Cc3ccccc3N3CCCC32)C1=O (stereo unspecified)
#27 Cn1cc(CCC(=O)N2CCCC(CCC(=O)NCc3ccccc3F)C2)cn1 (stereo unspecified)
#28 COc1cccc(-n2c(C)cc(/C=C3/C(=N)N4C(=NC3=O)SN=C4S(C)(=O)=O)c2C)c1
#29 COc1ccccc1NC(=O)CSc1nnc2ccc(-c3cccnc3)nn12
#30 CCNc1oc(-c2cccc3ccccc23)nc1C#N

screen / no.,21,22,23,24,25,26,27,28,29,30
Autofluor counter,5212,4664,7952,4652,7710,?,3446,2769,3284,2512
PrP UTR inh,-13,-27,-19,-20,-12,.,-21,7,-21,-41
ugtP null kill,-3,8,8,-1,-2,1,1,18,9,-18
RN4220 kill,2.9,-1.0,2.5,6.2,6.5,1.0,5.1,26,1.4,3.5
Mtb hypoxia rep,2,4,14,-6,-8,8,-4,2,15,2
Mtb hypoxia rep growth,-1,13,8,2,3,2,3,1,3,3
BJeLR viability,1,6,3,.,6,1,18,9,8,7

#31 COc1ccc(OCCSc2nc(-c3ccccc3)cc(=O)[nH]2)cc1
#32 Cn1c(=O)oc2cc(S(=O)(=O)CCC(=O)N3CCN(c4ccccc4F)CC3)ccc21
#33 O=c1c(Cl)c(NCc2ccccc2)cnn1C12CC3CC(CC(C3)C1)C2
#34 N#Cc1nnn(Cc2ccccc2)c1N
#35 Cc1cc(C)cc(OCC(=O)N2Cc3ccccc3CC2C(=O)O)c1 (stereo unspecified)
#36 COc1ccc(NC(=O)C2Cc3cccc(OC)c3O/C2=N\O)cc1 (stereo unspecified)
#37 O=C(Nc1ccc(O)cc1)c1ccc2c(c1)C(=O)N(Cc1ccccc1)C2=O
#38 CCOc1cc(CNc2ccc(CNc3ncn[nH]3)cc2)ccc1OCc1ccccc1
#39 Cc1cc(C)n2cc(CSc3nnnn3C)nc2n1
#40 COc1cccc(C2CC(=O)NC(SC)=C2C#N)c1 (stereo unspecified)

screen / no.,31,32,33,34,35,36,37,38,39,40
Autofluor counter,5115,4778,1991,5589,4472,3328,?,2380,.,5641
PrP UTR inh,-23,12,-1,-75,-5,-18,-20,-9,-23,-15
ugtP null kill,5,-4,-11,5,2,.,9,74,2,2
RN4220 kill,5.4,-0.3,1.1,2.2,2.2,.,4.4,12,7.0,4.3
Mtb hypoxia rep,6,-7,7,4,-9,.,13,10,1,3
Mtb hypoxia rep growth,7,-6,1,-7,0,.,16,1,0,-1
BJeLR viability,-4,7,-6,-4,4,-6,4,2,7,2

Filtered by structure, the compounds so far containing a cyano group (three)
#30 CCNc1oc(-c2cccc3ccccc23)nc1C#N
#34 N#Cc1nnn(Cc2ccccc2)c1N
#40 COc1cccc(C2CC(=O)NC(SC)=C2C#N)c1 (stereo unspecified)

screen / no.,30,34,40
Autofluor counter,2512,5589,5641
PrP UTR inh,-41,-75,-15
ugtP null kill,-18,5,2
RN4220 kill,3.5,2.2,4.3
Mtb hypoxia rep,2,4,3
Mtb hypoxia rep growth,3,-7,-1
BJeLR viability,7,-4,2

One compound at a time (already shown):
Entry for CCOc1cc(CNc2ccc(CNc3ncn[nH]3)cc2)ccc1OCc1ccccc1 → Autofluor counter = 2380; PrP UTR inh = -9; ugtP null kill = 74; RN4220 kill = 12; Mtb hypoxia rep = 10; Mtb hypoxia rep growth = 1; BJeLR viability = 2
Entry for Cc1cc(C)cc(OCC(=O)N2Cc3ccccc3CC2C(=O)O)c1 (stereo unspecified) → Autofluor counter = 4472; PrP UTR inh = -5; ugtP null kill = 2; RN4220 kill = 2.2; Mtb hypoxia rep = -9; Mtb hypoxia rep growth = 0; BJeLR viability = 4

Following part
#41 O=C(CSc1ccc(C(F)(F)F)cc1[N+](=O)[O-])NCCOc1ccccc1
#42 Cc1[nH]c2ccccc2c1C1(O)C(=O)N(C(C)C)c2ccccc21 (stereo unspecified)
#43 O=C(NCCCn1ccnc1)c1cccc(Br)c1
#44 CCN1CCN(C(=O)c2ccc(CSc3ccc(C)cc3)cc2)CC1
#45 CC(NS(=O)(=O)c1ccc(Cl)cc1)C(=O)NCc1ccco1 (stereo unspecified)
#46 COc1cc(OC)cc(C(=O)Nc2cccc(C(C)=O)c2)c1
#47 Cc1ccc(S(=O)(=O)NCCC2=CCCCC2)cc1
#48 COc1ccc2c(c1OC)C(=O)OC2C/C(=N\NC(N)=O)c1ccccc1 (stereo unspecified)
#49 O=C(c1ccc(F)cc1)N1CCC2(CC1)OCCO2
#50 CCn1c(O)c(/C=N/N=C2CCCC2)c2ccc(C3=NNC(=O)CC3)cc21

screen / no.,41,42,43,44,45,46,47,48,49,50
Autofluor counter,2429,23898*,3829,10730,6961,22501*,?,4181,4206,23877*
PrP UTR inh,18,-20,-23,-22,-3,-18,-12,7,-16,-13
ugtP null kill,-1,-20,7,3,-2,4,13,.,5,.
RN4220 kill,0.7,-0.8,0.9,4.7,-2.6,2.2,9.0,.,2.5,.
Mtb hypoxia rep,-1,0,5,2,-8,8,-1,.,10,.
Mtb hypoxia rep growth,-2,-8,0,-1,-10,6,1,.,2,.
BJeLR viability,7,-1,10,-6,1,-3,.,0,1,2

#51 COc1ccc(CCNCc2sccc2C)cc1OC
#52 CC(C)c1ccc(C(=O)N/N=C/c2cccc(Cl)c2Cl)cc1
#53 CCOC(=O)C(=O)NN=C(c1ccccc1)c1ccc(OC)cc1
#54 CN(C)C(CNC(=O)C1CCN(C(=O)/C=C/c2ccccc2)CC1)c1ccccc1 (stereo unspecified)
#55 Cc1cc(=O)[nH]c(N/N=C/c2c(C)nn(-c3ccccc3Cl)c2Cl)n1
#56 Cn1c(-c2cccs2)nc2ccccc21
#57 CSc1ccccc1C(=O)NC1CCCCC1
#58 CC(=O)c1c(C)[nH]c(C(=O)OCC(=O)C(C)(C)C)c1C
#59 Cc1ccccc1-n1c(SCC(N)=O)nc2sc(-c3ccccc3)cc2c1=O
#60 Cc1ccc(NCCC(=O)c2ccc(Cl)c(Cl)c2)cc1

screen / no.,51,52,53,54,55,56,57,58,59,60
Autofluor counter,4799,4024,.,4387,4429,3913,22309*,7783,3699,23171*
PrP UTR inh,-11,-13,.,3,-20,-40,-19,-42,-4,-7
ugtP null kill,2,.,3,7,.,5,2,5,-1,6
RN4220 kill,4.6,.,2.3,2.6,.,4.7,2.7,5.7,-16,4.7
Mtb hypoxia rep,1,.,6,10,.,.,14,8,6,13
Mtb hypoxia rep growth,-12,.,4,-11,.,.,9,15,7,7
BJeLR viability,0,3,.,-6,3,-23,-12,0,0,0

#61 CC(C)(C)C1CCC2(CC1)Nc1cccc3cccc(c13)N2
#62 CCOc1cc(/C=N/NC(=O)CN2CCCCC2)ccc1OCc1ccc(Cl)cc1
#63 CCCCNC(=O)C(C#N)c1nc2ccccc2nc1N1CCCC1 (stereo unspecified)
#64 Cc1cccc(C)c1-n1nnnc1SCSc1nnnn1-c1c(C)cccc1C
#65 COc1ccc(N2C(=O)c3ccccc3NC2c2ccc(OC)c(COc3ccccn3)c2)cc1 (stereo unspecified)
#66 Cc1ccc(CC(=O)Nc2nnc(-c3ccc(F)cc3)o2)c(C)c1
#67 COc1cccc(NC(=O)Nc2c(C)n(C)n(-c3ccccc3)c2=O)c1
#68 O=c1c2ccccc2nc(COc2ccccc2)n1N=Cc1ccc(O)c(O)c1

screen / no.,61,62,63,64,65,66,67,68
Autofluor counter,2292,2203,.,21580*,2042,4088,4150,.
PrP UTR inh,-18,-5,.,5,-57,-3,-9,.
ugtP null kill,-5,.,-4,-3,5,7,4,-22
RN4220 kill,3.4,.,-6.6,8.6,4.9,1.2,3.4,8.4
Mtb hypoxia rep,-91,.,2,14,13,0,7,1
Mtb hypoxia rep growth,-28,.,11,8,-1,-8,4,4
BJeLR viability,-11,-13,-8,18,6,-19,3,.
